CSC inhib = cancer stem cell viability inhibitors, primary screen, luminescence; cancer stem cell-like cells viability; hit rate 1.1% among 300,000; inhibition, % at 7.5 µM; AID 2717, 2010;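 active = mean at 75% or more and at least half the replicates too; inconclusive = mean and replicates disagree; tested in HMLE shEcad cells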;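 also: 0% = median of negative and 100% = median of positive control wells; the first replicate is given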
UUG fidelity = modulators of yeast start codon fidelity, primary screen, whole organism, S. cerevisiae, single point, plate reader; S. cerevisiae UUG-firefly luciferase reporter, luminescence/redox ratio; activity score, % at 18.7 µM; hit rate 0.13% among 350,000; AID 602363, 2012;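 active = replicate mean at a twofold rise or more, about +100% in these data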;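 also: firefly luciferase made from a UUG start codon reports start codon fidelity; reporter light over untreated wells divided by growth signal over untreated wells; some hits fall short of that in this replicate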
eIF4H inh = human eIF4H binding inhibitors, primary screen, translation initiation inhibitor project, biochemical, uHTS, fluorescence polarization. eIF4H fluorescence polarization binding assay. Eukaryotic translation initiation factor 4H (Homo sapiens), Q15056. hit rate 0.94% among 290,000. AID 2012, 2009. inhibition, % at 35 µM;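 active = 50% or more with normal probe brightness, or confirmed in later tests; inconclusive = above 50% with abnormal brightness, or retests that disagree; inactive = below 50% or failed in later tests; about a fifth of its hits are not listed in these tables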;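 also: calls also rest on retests at 20 µM and on dose response follow-up; 0% = protein and probe with vehicle and 100% = probe without protein; strong numbers were not always called active; many hits fall short of the cut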
Rce1 inh = yeast Rce1p protease inhibitors, primary screen, biochemical, fluorescence, cell-free homogeneous; hit rate 0.27% among 290,000; calls only; yeast membranes, quenched prenylated peptide cleavage fluorescence;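 active = fall in fluorescence gain of 50% or more versus controls, with final raw signal at or below 3038400; inconclusive = same 50% fall but final raw signal above 3038400; inactive = fall in fluorescence gain under 50%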;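 also: plate controls were neutral control wells for no effect and wells lacking membranes for full effect; tested at 10 µM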
Target sequence (Q03530 whole entry, looked up): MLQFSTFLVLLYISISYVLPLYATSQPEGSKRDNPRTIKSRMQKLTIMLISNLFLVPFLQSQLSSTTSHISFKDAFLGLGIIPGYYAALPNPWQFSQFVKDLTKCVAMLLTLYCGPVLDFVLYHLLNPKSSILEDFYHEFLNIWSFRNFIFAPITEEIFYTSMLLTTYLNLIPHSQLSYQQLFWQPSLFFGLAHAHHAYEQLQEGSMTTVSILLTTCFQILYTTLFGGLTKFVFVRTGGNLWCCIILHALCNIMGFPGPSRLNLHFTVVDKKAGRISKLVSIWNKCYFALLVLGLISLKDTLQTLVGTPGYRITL
MT1-MMP act inh = blockers of MT1-MMP proenzyme processing, primary screen, HT1080 RFP-PRO-GFP cells, GFP/RFP fluorescence | Matrix metalloproteinase-14 (Homo sapiens), P50281 | GFP/RFP ratio fluorescence, overnight; percent of plate control window, DMSO zero | GFP/RFP ratio change, % at 20 µM | hit rate 0.061% among 360,000 | AID 651647, 2012;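 active = GFP/RFP ratio change of at least 30% with cell ATP level not reduced by more than half and red fluorescence within 50% of control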; also: strong numbers were not always called active
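Assay system: HT1080 RFP-PRO-GFP cells | Dosing: 20 µM single dose, 1% DMSO | Incubation: Cells overnight before dosing, compound overnight, 37 °C, 5% CO2 | Evaluation: GFP/RFP fluorescence ratio | Control set: DMSO-only wells and HT1080 RFP-L50D-GFP cell wells as references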
HIV Env fusion = inhibitors of HIV-1 Env-driven cell-cell fusion, primary screen, HeLa-JRFL effector, CEM21 target cells, luciferase; inhibition, % at 12.3 µM; hit rate 1.1% among 360,000; AID 651610, 2012;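 active = mean replicate inhibition score of at least 50 and every replicate individually at or above 50; inconclusive = only one of the two criteria met; inactive = mean below 50 and not all replicates reaching 50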;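 also: 0% = plate neutral controls and 100% = maraviroc near 300 nM; one replicate is shown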
PABP FP inh = PABP poly(A) RNA binding inhibitors, primary screen, biochemical, fluorescence polarization, uHTS. hit rate 1% among 290,000. inhibition, % at 35 µM. AID 2014, 2009;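 active = 50% or more with normal probe brightness, or confirmed in later tests; inconclusive = above 50% with abnormal brightness, or retests that disagree; inactive = below 50% or failed in later tests; about a fifth of its hits are not listed in these tables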;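 also: calls also rest on retests at 20 µM and on dose response follow-up; controls were probe without protein and protein plus probe with vehicle; some compounds called inactive have numbers as strong as hits; many hits fall short of the cut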
eIF4H inh retest = second read-out of eIF4H inh, no call of its own (marks repeat the call); inhibition, %; compound at 20 µM; confirmation average;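 mean of two retest wells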
PABP FP inh retest = also measured in PABP FP inh; calls as there; inhibition, %; compound at 20 µM; confirmation repeats;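 mean of two retest wells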
MT1-MMP act inh RFP = recorded beside MT1-MMP act inh, whose call it bears; RFP signal change, %; measured here: RFP expression control read;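 0 = vehicle wells; hits needed this value within 50% of zero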
Active calls of the source: *; i = inactive; ? = inconclusive; nt = not tested or not shown. No enrichment for hits (roughly 2.9% active in at least one column).

SMILES	CSC inhib	UUG fidelity	eIF4H inh	Rce1 inh	MT1-MMP act inh	MT1-MMP act inh RFP	HIV Env fusion	PABP FP inh	others
COc1ccc(OCCNS(=O)(=O)Cc2ccccc2)cc1	6	-4	-6	i	3	0	10	-3
COc1ccc2cc(C(=O)Nc3ccc(S(N)(=O)=O)cc3)sc(=O)c2c1OC	-15	1	1	i	4	4	8	-15
Cc1nc(/C(N)=N/OC(=O)Cc2ccccc2)no1	-2	nt	-5	i	5	4	7	25
COc1ccc(S(=O)(=O)N2CCOCC2)cc1C(=O)N1CCCCC1	-16	-5	7	i	-1	-1	0	-8
Cc1ccc(-c2n[nH]c(=O)c3ccccc23)c(C)c1	-2	-5	-5	i	3	-12	-97	3
O=C(NCCCNCCCNC(=O)c1ccc(/C=N/O)nc1)c1ccc(/C=N/O)nc1	-5	-10	3	i	0	1	-5	-13
Cc1ccc(-n2ccnc2SCC(=O)N(CC(C)C)C2CCS(=O)(=O)C2)c(C)c1 (stereo unspecified)	-5	-19	-3	i	1	0	5	-1
O=C(c1ccc(Br)cc1)c1sc(N2CCOCC2)nc1-c1ccccc1	59	nt	0	i	-7	-10	11	9
Cc1cc2c(cc1S(=O)(=O)N1CCN(c3ccccc3)CC1)OCC(=O)N2	-8	-15	-9	i	1	1	-3	-6
O=C(CNC(=O)c1ccc2c(c1)OCCO2)N/N=C/c1cccc(Br)c1	-7	nt	-13	i	0	1	3	-5
CC(=O)Nc1nonc1-n1nnc(C(=O)NCc2ccccc2)c1C	1	-6	-3	i	2	3	-13	-6
COc1ccc(S(=O)(=O)N2CCOC2CNC(=O)C(=O)NCc2ccccn2)cc1OC (stereo unspecified)	nt	-15	nt	nt	4	6	-11	nt
CCOc1ccc(NC(=O)c2ccccn2)cc1	11	nt	-6	i	-3	2	12	-24
COC(=O)C1CCN(C(=O)COC(=O)c2ccc3[nH]c4c(c3c2)CCCC4)CC1	-7	-2	nt	i	4	3	22	nt
Cc1cc(C)cc(C(O)c2ncc(-c3ccccc3)[nH]2)c1 (stereo unspecified)	nt	-18	nt	nt	3	3	-4	nt
CCOC(=O)c1sc(N/N=C/c2cccc(C)c2)nc1C	12	-10	-2	i	-2	-1	-55	-3
Cc1ccc(CN2CCN(/N=C/c3ccc(C(=O)O)cc3)CC2)c(C)c1	4	nt	-2	i	3	1	-1	2
C/C(N)=C(/C#N)C(=O)COC(=O)C1CCN(C(=O)c2ccc(Cl)cc2)CC1	30	nt	-3	i	1	1	0	-3
COc1ccc(-c2cc(C(F)(F)F)nc(SCC(=O)Nc3ccc4c(c3)OCO4)n2)cc1	0	-15	-5	i	-3	-4	9	-4
CN(C)CCCNCCCNC(=O)c1ccncc1	-6	6	24	i	3	5	8	20
CCc1nc(C)cn1S(=O)(=O)c1cc(F)ccc1OC	-4	nt	-4	i	-2	4	7	-2
Nn1c(COc2cccc(Cl)c2)nc2ccccc2c1=O	1	nt	-8	i	5	4	-4	-3
Clc1ccc(Cn2nnc(-c3ccccc3)n2)cc1	2	0	8	i	3	0	nt	-30
C=CCNC(=O)c1cccc(C(F)(F)F)c1	-14	-11	-10	i	2	0	-14	-2
Cc1nn(C)cc1C(C(=O)NC1CCCCC1)N(C(=O)c1cnccn1)c1ccc(Oc2ccccc2)cc1 (stereo unspecified)	-2	nt	2	i	5	8	7	48
Cc1ccc2c(c1)sc(-c1ccc(N(C)C)cc1)[n+]2C	43	42	-3	i	-34	-30	25	-3
Cc1cccn2c(=O)c(/C=N/O)c(N3CCCC3)nc12	-7	nt	-7	i	2	4	-18	2
CCOC1=C2[C@H](c3ccc(CC)cc3)N(S(=O)(=O)c3ccc(C)cc3)C[C@H]2C(C#N)(C#N)C(C#N)(C#N)C1	nt	14	nt	nt	-8	-5	-91	nt
Cc1cc(C(c2ccc(O)cc2)c2cc(C)c(O)cc2C)c(C)cc1O	40	-20	0	i	-10	-14	2	-8
Cc1cc(O)c(C(=O)/C=C/c2cccc([N+](=O)[O-])c2)c(=O)o1	10	-11	37	i	0	1	3	8
Cc1nn(C)c(Oc2ccccc2)c1[N+](=O)[O-]	-17	-1	6	i	2	-3	-115	-14
Cc1ncoc1C(=O)Nc1cccc(Cl)c1C	-9	nt	0	i	2	1	nt	11
CCCc1cc(=O)[nH]c(SCC(=O)c2c(N)n(C)c(=O)n(C)c2=O)n1	6	-2	5	i	-3	-1	nt	35
Cn1c(O)c(N=NC(=O)CNC(=O)/C=C/c2ccccc2)c2ccccc21	-2	3	-12	i	5	7	-8	15
COc1cc2c(cc1OC)C(c1cccs1)CC(=O)N2 (stereo unspecified)	nt	-17	8	i	-7	4	-26	9
Cc1ccc(-c2nnn(CC(=O)N3CCC(C)CC3)n2)o1	-9	nt	-2	i	-1	4	-25	5
C=CCNc1nc(N)c([N+](=O)[O-])c(NC2CCCCC2)n1	-16	-9	6	i	-1	1	-11	-6
COc1cc(C(=S)N2CCN(c3cccc(Cl)c3)CC2)ccc1O	-12	nt	14	i	-3	-13	-4	-4
CCCCN1C(=O)C(CC(=O)NC2CCCC2)CC(C(=O)N(C(C)C)C(C)C)=C1C (stereo unspecified)	nt	14	nt	nt	-4	1	16	nt
O=C1N[C@@H](c2ccccc2)COC(=O)[C@@H](Cc2ccc(F)cc2)C/C=C\C[C@@H]1CC(=O)N(CCO)Cc1ccccc1	2	-15	nt	nt	0	-6	-34	nt
O=C(Nc1ccc2c(c1)OCO2)C1CC(=O)N(CCc2ccccc2)C1 (stereo unspecified)	8	-5	4	i	5	2	-6	9
CC(C)CCNC(=O)C(c1cccs1)N(CC1CCCO1)C(=O)Cn1nnc2ccccc21 (stereo unspecified)	-10	nt	5	i	-2	3	nt	5
CCC(C)c1cc(S(=O)(=O)N2CCOCC2)ccc1OC (stereo unspecified)	2	-8	-3	nt	2	10	nt	2
O=C(c1cccc(N2C(=O)C3C4C=CC(C4)C3C2=O)c1)N1CCN(c2ccc(F)cc2)CC1 (stereo unspecified)	-34	-8	-10	i	3	-2	-22	-10
Cc1ccc(C)c(S(=O)(=O)NCc2ccncc2)c1	10	-11	89	nt	1	-9	?	9	eIF4H inh retest=-9;PABP FP inh retest=2
COc1ccc(C)cc1NC(=O)C1CCN(S(=O)(=O)c2cccs2)CC1	-15	-10	-1	i	-5	-2	5	-3
CC(=O)C1CCC2C3CCC4=CC(=O)CCC4(C)C3(Br)C(=O)CC12C (stereo unspecified)	nt	16	nt	nt	0	0	9	nt
COc1ccc(C2=CC(c3ccc(OC)c(OC)c3)n3nnnc3N2)c(OC)c1 (stereo unspecified)	-6	-7	4	i	-13	3	26	11
O=C(CNC(=O)c1ccccc1F)NCCN1C(=O)S/C(=C\c2ccc3c(c2)OCO3)C1=O	nt	-17	nt	nt	-1	-1	-19	nt
CC1(C)CC(=O)C2=C(C1)OC(N)=C(C#N)C2c1cc2c(cc1[N+](=O)[O-])OCO2 (stereo unspecified)	-4	nt	?	i	-108	7	8	-5
OC(COCc1cccs1)CN1CCCCCC1 (stereo unspecified)	9	16	1	i	-6	-1	nt	7
c1ccc2c(c1)NCCS2	0	nt	12	i	-56	2	-10	27
CCCCCc1ccc(OCCCC[n+]2ccc(C)cc2)c(CCCCC)c1	17	nt	-1	i	-29	-37	55*	16
COc1ccc2c(c1)OC[C@H]1[C@H]2N2C(=O)CN(Cc3ccc(F)cc3)C(=O)[C@@]2(C)[C@H]1c1ccccc1	-7	2	nt	nt	0	-6	48	nt
COc1ccc(C(=O)N2CCN(c3ccc(C)cc3C)CC2)cc1OC	1	-9	3	i	1	-6	25	36
COc1ccc(OC(F)(F)F)cc1CC1(C)C(=O)Nc2cccc(Cl)c21 (stereo unspecified)	nt	-11	nt	nt	7	-4	83*	nt
COCC(=O)N1CCCC(C(=O)c2ccc(-c3ccccc3)cc2)C1 (stereo unspecified)	-4	-3	0	i	-4	-7	5	10
COCCCN(C(=O)CCOc1ccc(C(C)(C)C)cc1)c1c(N)n(Cc2ccccc2)c(=O)[nH]c1=O	-8	nt	nt	i	-1	1	-19	nt
CCCCN1CC(=O)N2[C@H](c3ccc(OC)cc3)[C@@H]3C(=O)N(CC)C(=O)[C@@H]3[C@]2(C)C1=O	8	-5	-1	i	0	6	nt	15
COc1ccccc1N1CCN(C2CCCN(C(=O)c3ccoc3C)C2)CC1 (stereo unspecified)	-3	-10	5	i	0	3	-2	15

Further compounds.
SMILES	CSC inhib	UUG fidelity	eIF4H inh	Rce1 inh	MT1-MMP act inh	MT1-MMP act inh RFP	HIV Env fusion	PABP FP inh	others
Fc1ccc(CSc2nnc(-c3cccnc3)n2Cc2ccco2)cc1	-11	-3	24	i	-6	-1	-3	20
O=C(N/N=C/c1cn(-c2cccs2)nc1-c1ccccc1)c1ccccc1Cl	-7	nt	0	i	-1	-2	10	-13
CC(C)NC(=O)C(c1ccc(F)cc1)N(C(=O)CCC(=O)Nc1ccccn1)c1cccc(F)c1 (stereo unspecified)	-14	-5	-6	i	2	3	17	-2
COc1cc(NC(=O)NC(C)(C(F)(F)F)C(F)(F)F)cc(OC)c1OC	-12	-1	-10	i	2	-2	-21	19
COc1ccc(C)cc1NC(=O)NCCCCc1ccccc1	6	-23	7	i	0	-3	14	4
COCCCNC(=O)CC1C[C@H](C(=O)N2CCOCC2)[C@@]2(C)c3[nH]c4ccc(OC)cc4c3CCN2C1=O (stereo partly specified)	nt	0	nt	nt	4	2	-22	nt
O=C1CS/C(=N/N=C2C3CC4CC(C3)CC2C4)N1	-3	nt	2	i	-1	3	26	4
CCOC(=O)C1(Cc2ccccc2)CCN(Cc2cn[nH]c2-c2ccccc2)CC1	-16	nt	-4	i	0	-7	-17	0
CCC(O)(Cc1ccccn1)Cc1ccccn1	nt	6	nt	nt	-4	5	-6	nt
O=C(NCc1cccc(Br)c1)C1CC2Cn3c(nc4ccccc43)C2N1c1ccccc1 (stereo unspecified)	1	-15	nt	i	0	3	-15	nt
O=C(O)c1ccccc1-c1ccc(/C=C/c2cc(C(F)(F)F)[nH]c(=O)n2)o1	nt	nt	?	nt	-82	17	-14	-2
O=C(CN1CCN(c2ncccn2)CC1)N1CCCc2c1c(=O)oc1ccc(O)cc21	2	-1	3	nt	-1	3	nt	4
CCOc1cc(CNCCSc2nnnn2C)cc(Br)c1OCc1ccccc1	0	nt	-2	i	-5	-14	nt	-3
CCc1nc2c(OCc3ccc(C(F)(F)F)cc3)cccn2c1N(C=O)Cc1ccc(OC)cc1	nt	11	nt	nt	0	-11	56*	nt
O=C(CSc1nc2ccccc2c(=O)n1NC(=O)c1ccccc1)c1ccc(Cl)cc1	14	-38	10	i	-9	-3	-183	2
CC(C)(C)c1ccc(C(=O)NCCC(=O)N2CCC3(CC2)NCCc2[nH]cnc23)cc1	-7	-18	2	i	2	1	6	13
Clc1ccc(OCCNCCc2ccccc2)cc1	nt	-16	-1	i	-1	-1	-15	15
